VDR inhibitor = inhibitors of human vitamin D receptor; Potency, µM, for the others: max response, negative = inhibition, actives largely listed as inhibitors; AID 504847; P11473; VDR-SRC2-3 peptide fluorescence polarization, 2 h; hit rate 0.93% among 400,000; active means well fitted inhibition curve with a large enough effect; inconclusive means small, poorly fitted or top-dose-only effect, or another doubt; inactive means no such curve, though single readings can be large or run the other way; further: series mostly up to about 120 µM
Target sequence (P11473 whole entry, looked up): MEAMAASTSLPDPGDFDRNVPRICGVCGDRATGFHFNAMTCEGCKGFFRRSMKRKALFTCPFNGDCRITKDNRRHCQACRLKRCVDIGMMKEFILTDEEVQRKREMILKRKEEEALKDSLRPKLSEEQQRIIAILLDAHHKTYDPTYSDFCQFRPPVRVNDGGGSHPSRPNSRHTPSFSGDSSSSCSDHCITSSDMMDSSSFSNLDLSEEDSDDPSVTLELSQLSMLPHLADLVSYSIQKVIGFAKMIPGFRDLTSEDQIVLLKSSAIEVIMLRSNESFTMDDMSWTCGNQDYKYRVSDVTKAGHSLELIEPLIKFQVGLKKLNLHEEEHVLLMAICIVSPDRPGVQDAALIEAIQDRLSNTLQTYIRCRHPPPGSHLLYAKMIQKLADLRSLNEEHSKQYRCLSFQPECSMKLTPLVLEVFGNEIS
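Signal is fluorescence polarization, reporting how far test compounds block the interaction of VDR with the SRC2-3 coregulator peptide after a 2 h room-temperature incubation.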
An asterisk follows results filed as active; ? = inconclusive; & = joins results of further samples. On the % scale 0 is the no-effect control and ±100 the full control effect; potency means the concentration at half of the fitted maximal effect.

VDR inhibitor | Molecule
-1.3% | CC(C)[C@H](NC(=O)[C@@H](Cc1c[nH]c2ccccc12)NC(=O)[C@H](Cc1ccc(O)cc1)NC(=O)[C@@H](N)CC(=O)O)C(=O)N[C@H](Cc1c[nH]c2ccccc12)C(=O)N[C@H](Cc1c[nH]c2ccccc12)C(=O)N[C@@H](CCCCN)C(N)=O
10.6% | CCOc1ccc(C(=O)COC(=O)CC)cc1
9.9% | COC(=O)C(Cc1ccc(O)cc1)NC(=O)C(C)Oc1ccccc1 (stereo not drawn)
-15.0% | CCOc1ccc(Oc2nc(C)cc(OC)n2)nn1
-7.1% | Cc1nc(-c2ccc(S(=O)(=O)N3CCN(CCc4ccccc4)CC3)s2)cs1
? | CCC(C)C(NC(=O)C1CCC(C)CC1)C(=O)Nc1ccc(OC)cc1 (stereo not drawn)
-17.6% | O=C(CCc1nc(-c2cccs2)no1)Nc1cnc2ccccc2c1
0.7% | COc1ccc(Nc2nc(N3CCCC3)nc(N3CCOCC3)n2)cc1
2.5% | CC(=O)Nc1ccc(S(=O)(=O)NC2(C(F)(F)F)NC(=O)N(CCc3ccc(F)cc3)C2=O)cc1 (stereo not drawn)
-5.7% | CCOc1ccc(NS(=O)(=O)c2cc(C(=O)N3CCC3)ccc2Cl)cc1
6.5% | O=C1[C@H]2[C@@H](c3ccc(F)cc3)N3C(=O)N(c4ccc(Br)cc4)C(=O)[C@@]3(Cc3ccccc3)[C@H]2C(=O)N1C1CCCCC1
2µM* | C[N+](C)(C)CCC(=O)c1cccc2ccccc12
-9.1% | CCOc1cccc(/C=N/N=C/c2cccc(OCC)c2O)c1O
-18.8% | COc1ccc([N+](=O)[O-])cc1NC(=O)C(C)N(C)Cc1ccc(Br)cc1 (stereo not drawn)
4.7% | COc1ccc(CC(=O)NC2CC(C)(C)NC(C)(C)C2)cc1OC
-9.0% | CCOC(=O)c1c(C2CC2)csc1NC(=O)CSCc1c(C)noc1C
15.6% | COc1ccc2c(c1)[nH]c1c(=O)n(CC3CCCO3)cnc12 (stereo not drawn)
7.8% | CC(C)(C)NC(=O)C(c1cccs1)N(Cc1cccs1)C(=O)c1csnn1 (stereo not drawn)
-1.2% | Cn1c(=O)[nH]c(=O)c2c1nc(NCCc1ccccc1)n2CC(O)COc1ccccc1 (stereo not drawn)
21.2% | CCC(C(=O)NC1CCCC1)n1c2ccccc2c2nc(=O)cc(C)n21 (stereo not drawn)
-7.1% | CC(CN1C(C)CCCC1C)OC(=O)c1ccccc1Br (stereo not drawn)
5.8% | CC(C)Cc1nnc(NC(=O)C2CCN(C(=O)c3ccc(Cl)cc3)CC2)s1
-8.9% | Cc1ccccc1SCC(=O)N1CCN(c2ccc(C(F)(F)F)cn2)CC1
-18.2% | C/C(=N\NC(=O)c1cc2ccccc2cc1O)c1ccccn1
-3.3% | CCC(Sc1nc(C)cc(C)n1)C(=O)Nc1nccs1 (stereo not drawn)
4.4% | COc1ccc(NC(=O)CN2C(=O)NC(C)(c3ccc4c(c3)OCCO4)C2=O)cc1S(N)(=O)=O (stereo not drawn)
-22.7% | CN1CCc2nc3sc(C(=O)Nc4cccc(C#N)c4)c(N)c3cc2C1
-23.4% | Cc1cc(Br)c(S(=O)(=O)NCc2ccncc2)cc1C
-11.3% | Cc1ccc(NC(=O)Cn2c(=O)oc3ccccc32)c(C)c1
9.5% | Fc1ccccc1/C=N/Nc1ccc(Cl)nn1

Brought forward from above: 6 entries, then new ones.
VDR inhibitor | Molecule
-3.3% | CCC(Sc1nc(C)cc(C)n1)C(=O)Nc1nccs1 (stereo not drawn)
4.4% | COc1ccc(NC(=O)CN2C(=O)NC(C)(c3ccc4c(c3)OCCO4)C2=O)cc1S(N)(=O)=O (stereo not drawn)
-22.7% | CN1CCc2nc3sc(C(=O)Nc4cccc(C#N)c4)c(N)c3cc2C1
-23.4% | Cc1cc(Br)c(S(=O)(=O)NCc2ccncc2)cc1C
-11.3% | Cc1ccc(NC(=O)Cn2c(=O)oc3ccccc32)c(C)c1
9.5% | Fc1ccccc1/C=N/Nc1ccc(Cl)nn1
6.1% | Cc1noc(C)c1COc1ccccc1C(=O)NC(C)c1ccc(Cl)cc1 (stereo not drawn)
-22.7% | CCOc1ccc(CN(C)CC(=O)Nc2cccc(C)c2)cc1OC
6.3% | Cc1cc(Cl)ccc1OCCCC(=O)NO
12.0% | O=C1c2ccccc2-c2n[nH]c(=O)c3ccc(N4CCCCC4)c1c23
-26.0% | N#C/C(=C/c1ccncc1)c1nc2ccccc2c(=O)[nH]1
-19.0% | COc1ccc(F)c(CN2CCC(CO)(Cc3cccc(C(F)(F)F)c3)CC2)c1
1.0% | CCn1c(SCC(=O)N/N=C/c2c[nH]c3ccccc23)nnc1-c1ccc(Cl)cc1
-4.2% | COC(=O)c1ccccc1NC(=O)c1noc2c1CSc1ccccc1-2
-9.2% | Cc1ccc(C(=O)N/N=C/c2ccc(N3CCOCC3)cc2)c(C)c1
-12.0% | O=C(Cn1cc([N+](=O)[O-])ccc1=O)N1CCc2ccccc2C1
6.0% | O=C(COC(=O)c1cccc(OC(F)F)c1)NCC1CCCO1 (stereo not drawn)
5.5% | Cc1sc2nc(CN3CCOCC3)[nH]c(=O)c2c1-c1ccccc1
9.6% | CC(=O)N1CCC(Nc2ccc(C)cc2)CC1
? | CCc1nnc(NC(=O)c2ccc(S(=O)(=O)N3CCc4ccccc4C3)cc2)s1
0.0% | COc1ccc(NS(=O)(=O)c2ccc(OC)c(NC(=O)CNC(=O)c3ccc(OC)cc3)c2)cc1
-8.4% | COc1ccc(C2C(C#N)=C(N)Oc3cccc(O)c32)cc1 (stereo not drawn)
? | Cc1ccc(NC(=S)Nc2cccc3cnccc23)cc1C
8.6% | Cc1cc(NC(=O)c2cc3n(n2)C(C(F)(F)F)CC(c2ccco2)N3)no1 (stereo not drawn)
15.9% | COc1ccc(-c2c(C)c3ccc(O)c(CN4CCCC(C)C4)c3oc2=O)cc1OC (stereo not drawn)
50.1µM* | O=C(Nc1ccccc1)Nc1ccc(O)c2ccccc12
-11.9% | Cc1ccc(-n2ncc3c2CCCC3NC(=O)c2ccccc2N2CCOCC2)cc1C (stereo not drawn)
3.7% | CCOc1ccc(NC(=O)c2nn(C)c3c2CS(=O)(=O)c2ccccc2-3)cc1
4.4% | Nc1cc(=O)[nH]c(SCCOc2ccccc2)n1
-20.1% | O=C(Nc1cccc([N+](=O)[O-])c1)c1ccc2c(c1)OCCO2
2.3% | CCOC(=O)c1[nH]c(C)c(C(=O)NCc2ccccc2Cl)c1C
3.7% | CCC1(C)Cc2c(c(=O)n(-c3ccccc3)c3ncnc(N)c23)CO1 (stereo not drawn)
-20.0% | Cc1cc(-c2ccco2)n(CC(=O)NCc2ccccc2)n1
-13.8% | CCN(CC)C(=O)c1[nH]cnc1C(=O)N[C@@H](C)c1ccccc1
1.0% | COc1ccc(N2CCN(C(=O)COC(=O)CCOc3ccccc3C)CC2)cc1
-5.7% | COc1ccc(NC(=O)CSc2nc3ccsc3c(=O)n2Cc2ccccn2)c(OC)c1

Some values from the list:
Reading for Cc1ccc(-n2ncc3c2CCCC3NC(=O)c2ccccc2N2CCOCC2)cc1C (stereo not drawn) in VDR inhibitor: -11.9%
Reading for Cc1cc(Br)c(S(=O)(=O)NCc2ccncc2)cc1C in VDR inhibitor: -23.4%
Reading for Cc1ccc(NC(=O)Cn2c(=O)oc3ccccc32)c(C)c1 in VDR inhibitor: -11.3%
Reading for CCOc1ccc(NC(=O)c2nn(C)c3c2CS(=O)(=O)c2ccccc2-3)cc1 in VDR inhibitor: 3.7%
Reading for CC(CN1C(C)CCCC1C)OC(=O)c1ccccc1Br (stereo not drawn) in VDR inhibitor: -7.1%

More structures.
VDR inhibitor | Molecule
-0.8% | O=C(O)CC(Cc1ccccc1)c1ccc2c(c1)OCO2 (stereo not drawn)
5.0% | Cc1cccc(-c2c3c(=O)n(C)c(=O)n(C)c3cn2C2CCCCC2)c1
3.5% | COc1ccccc1Nc1nnc(SCC(=O)N2CC(=O)Nc3ccccc32)s1
-20.3% | CN(O)C(=O)Nc1ccc([N+](=O)[O-])cc1
-6.1% | NC(=O)c1c(NC(=O)C2CCCO2)sc2c1CCC2 (stereo not drawn)
14.4% | COc1cc2c(cc1O)C(Cc1ccc(O)cc1)N(C)CC2 (stereo not drawn)
0.8% | CCCOc1ccc(/C(O)=C2/C(=O)C(=O)N(CCCOC)C2c2cccnc2)cc1 (stereo not drawn)
-23.8% | CC(=O)c1cc(-c2ccccc2)[nH]c1N1CCOCC1
10.3% | CCOc1cc(C(=O)N2CCC(CC3CC(c4ccccc4)=NO3)(C(=O)NCc3ccc(OC)cc3)CC2)cc(OCC)c1OCC (stereo not drawn)
11.9% | CCOc1ccc(/C=C/c2nc(C#N)c(Nc3ccc(OC)cc3)o2)cc1
-17.7% | COc1ccc(NC(=O)Cn2c(=O)n(Cc3ccco3)c(=O)c3sc4ccccc4c32)cc1Cl
-2.1% | Nc1nc(SCC(=O)Nc2cc(C(F)(F)F)ccc2Cl)[nH]c(=O)c1NC(=O)c1ccco1
3.3% | CCN(CC)c1ncnc2c1cnn2C
1.0% | O=C(Nc1nccs1)c1ccc(COc2ccccc2)o1
-15.4% | CC(C(=O)NCCCN1CCOCC1)n1cccc1C(=O)c1ccccc1 (stereo not drawn)
2.1% | Cc1ccccc1OCC(=O)Nc1nnc(SCc2cc(=O)n3cc(Cl)ccc3n2)s1
8.0% | O=S(=O)(c1cccs1)N1CN(Cc2ccccc2)c2nc3ccccc3nc21
23.6% | Cc1c(NC2=NC3(CCCCC3)Cc3ccccc32)c(=O)n(C)n1-c1ccccc1
? | C=CCC(NCc1ccco1)c1ccc(OC)cc1 (stereo not drawn)
1.5% | Cc1csc(NC(=O)CCn2c(=O)sc3ccccc32)n1
-11.0% | C=CCn1c(-c2cccn(Cc3ccc(Cl)cc3)c2=O)n[nH]c1=S
-2.0% | COCC(=O)N1CCC(Oc2ccc(C(=O)N3CCN(C)C[C@@H]3C(C)C)cc2)CC1
3.1% | CCN(CC)CCNC(=O)Cn1nc(Cc2ccccc2)c2ccccc2c1=O
3.5%&-9.3% | COc1cc(-c2cc(=O)c3c(O)c(OC)c(OC)c(OC)c3o2)cc(OC)c1OC
10.4% | CN(Cc1ccccc1)C(=O)CCNS(=O)(=O)c1ccc2c(c1)oc(=O)n2C
-4.3% | CC(Oc1ccc2c3c(c(=O)oc2c1)CCCC3)C(=O)NCc1cccnc1 (stereo not drawn)
3.0% | COCCN(C(=O)c1ccc(C#N)cc1)c1c(N)n(Cc2ccccc2)c(=O)[nH]c1=O
? | CC1(C)CC(c2nc(-c3ccc(Br)cc3)cs2)CCS1 (stereo not drawn)
1.3% | CC1CCN(S(=O)(=O)c2ccc3[nH]ccc3c2)CC1
7.0% | Nc1ccc(S(=O)(=O)NC(Cc2ccccc2)C(=O)O)cc1 (stereo not drawn)
13.0% | CC(C)(C)c1ccc(C(=O)NNc2ncnc3c2cnn3-c2ccc(Cl)cc2)cc1
-13.8% | O=C(NCc1ccncc1)Nc1ccccc1F
14.6% | O=C(NCCCCNC(=O)c1ccco1)c1ccco1
7.1% | COCCNC(=O)CSc1nnc(NC(=O)Nc2ccc(C)cc2)s1
1.0% | Cc1ccc(C(=O)CN2C(=O)NC3(CCCCC3C)C2=O)s1 (stereo not drawn)
9.4% | O=C(CCS(=O)(=O)c1cccc2nonc12)N1CCCc2ccccc21
-26.4% | CCn1cc(C(=O)NCc2cccnc2)c2cc(OC)c(OC)cc2c1=O
-24.1% | CCOC(=O)CN1C(=O)C2(OCCCO2)c2cc(Br)ccc21
1.4% | COc1ccc(OC)c(N2Cc3cc(C)c(C)cc3C2)c1
3.8% | Cc1c(C(=O)N2CCN(c3ccc(C(F)(F)F)cn3)CC2)oc2ccccc12
-17.8% | c1ccc(N2CC3CCc4ccccc4C3=N2)cc1 (stereo not drawn)
-11.1% | COc1ccc(Cn2c(-c3ccccc3C)nc3c(c(=O)c4ccccc4n3C)c2=O)cc1
-5.5% | Cc1occc1C(=O)N1CCN(C(c2ccccc2)c2ccccc2)CC1
-6.2% | CC(NC(=O)C(=O)N/N=C/c1ccccc1)c1ccccc1 (stereo not drawn)
-5.8% | O=c1cc(-c2ccccc2)c2cc3c(cc2[nH]1)OCCO3

Overlap with the part before: 2 compounds; new compounds follow.
VDR inhibitor | Molecule
-6.2% | CC(NC(=O)C(=O)N/N=C/c1ccccc1)c1ccccc1 (stereo not drawn)
-5.8% | O=c1cc(-c2ccccc2)c2cc3c(cc2[nH]1)OCCO3
17.9% | O=C(NCCCN1CCOCC1)c1cn(-c2ccccc2)nc1-c1cccs1
5.6% | CCC(C)NC(=O)C1(N2C(=O)c3ccccc3C2=O)CCCC1 (stereo not drawn)
-1.6% | COc1ccc(CN2CC[C@H]3C=CC[C@@H](C(=O)Nc4ccc(Cl)c(C(F)(F)F)c4)[C@H]3C2=O)cc1OC
-3.8% | O=C(N[C@H]1CCC(=O)N([C@H](CSc2ccccc2)Cc2ccccc2)CC1)OCc1ccccc1
? | CC(=O)Nc1ccccc1NS(=O)(=O)c1cccc([N+](=O)[O-])c1
-2.6% | O=S(=O)(c1ccccc1)N1CCC2(CC1)CN(Cc1nccs1)C2
4.2% | CCC1(c2ccccc2)NC(=S)N(c2cccc(C)c2C)N1 (stereo not drawn)
-5.2% | CCN(C(=O)CN1CCN(S(=O)(=O)c2ccccc2C(F)(F)F)CC1)c1c(N)n(Cc2ccccc2)c(=O)[nH]c1=O
-0.2% | COc1ccc(Cc2nc3ccc(C(=O)NCCc4ccncc4)cc3o2)cc1OC
-2.0% | CCOc1ccc2oc(=O)cc(CN3CCN(c4ccccc4)CC3)c2c1
-6.9% | Cc1ccc(CNC(=O)Nc2ccc(OC(F)(F)F)cc2)n1C
0.9% | NS(=O)(=O)c1cccc(NC(=O)COC(=O)CCSc2ccccc2)c1
22.4µM* | CC(C(=O)Nc1ccccc1C(=O)N1CCOCC1)N(c1ccc(Cl)cc1)S(C)(=O)=O (stereo not drawn)
5.6% | Cc1csc(NC(=O)CSC2=NS(=O)(=O)c3cc(F)ccc3N2)n1
-24.9% | COc1ccc(Cl)cc1NC(=O)C(C)N1CCN(c2ccccn2)CC1 (stereo not drawn)

Compound activity deposited in PubChem by National Center for Advancing Translational Sciences (NCATS).

An excerpt, so the mix of outcomes need not match the whole.
